High-throughput results as filed in PubChem.
Menin MLL FP FL: menin-MLL binding inhibition, fluorescein peptide; 290,000 tested, under 10 active; FP activity change, % at 61.4 µM; Fluorescence polarization, fluorescein-MLL peptide displacement from menin; AID 1766; inconclusive = falling polarisation curve, or a change in total fluorescence; inactive = total fluorescence flat and polarisation flat or rising; no compound was filed as active; the % refers to the polarisation; negative = inhibition;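 note: % of control where 0% means no effect; inhibitors lower the polarisation; unlabelled MLL peptide was the positive control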
gsp antagonist: gsp mutant antagonism. Potency, µM (highest dose often 76.9 µM), without a hit: at the top dose activity change, negative = inhibition, most hits filed as inhibitors. gsp-mutant cells, cAMP HTRF, 30 min; control for the full effect not named in the record. hit rate 0.4% among 340,000; active = falling curve of any shape with a large fitted effect; inconclusive = falling curve, mostly with a smaller effect; inactive = flat or rising curve; cell line not stated here;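 note: intracellular cAMP measured with PDE inhibitor Ro 20-1724 present during compound exposure; potency is the fitted concentration of half-maximal effect; % is set by controls: 0 for no effect and ±100 for the full control effect; nearly all actives have a fitted effect of over 65% in size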
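Cells in G418 medium, seeded 16-24 h, 37C; buffer exchange to DPBS + 1 mM CaCl2, 0.5 mM MgCl2, 0.05% BSA; cpds in DMSO + […] (300 uM stock), 30 min 37C; HTRF cAMP detection.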
ClpP mod: qHTS Assay for Activators of ClpP; hit rate 1.9% among 340,000; AID 651965, 2013; Potency, µM (series often up to 57.5 µM), without a hit: at the highest dose activity change, negative = active; purified B. subtilis ClpP, FRET peptide cleavage, 20 min; active = well fitted falling curve with a large enough effect; inconclusive = small, poorly fitted or top-dose-only effect; inactive = no such curve, though single readings can be large or run the other way; note: potency is the fitted concentration of half-maximal effect; the source files actives as falling curves though it sought activators and does not explain the sign; nearly all actives have a fitted effect of over 65% in size; many hits overshoot -100%
Target sequence (P80244 whole entry, looked up): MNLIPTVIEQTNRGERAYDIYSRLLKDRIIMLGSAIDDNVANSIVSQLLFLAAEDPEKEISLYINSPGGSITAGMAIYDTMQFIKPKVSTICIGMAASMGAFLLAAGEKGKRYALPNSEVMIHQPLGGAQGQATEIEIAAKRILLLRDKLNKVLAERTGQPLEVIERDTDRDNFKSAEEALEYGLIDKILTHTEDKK
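Buffer: 100 mM Tris/HCl pH8, 100 mM KCl, 0.05% low protease BSA, 2.5% glycerol, 0.01% Tween-20. ClpP 10 microg/mL final; 20 min RT; delta FRET normalized to ADEP and DMSO controls.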
TRPML1 blocker: inhibitors of human TRPML1 channel; Q9GZU1; TRPML1-inducible cells, Ca2+ dye fluorescence, FDSS; active compounds read low; inhibition of EC80 agonist-evoked calcium signal; activity change, negative = inhibition, % (concentration not given with the values); hit rate 0.02% among 390,000; in the data active means activity change below about -50%; inconclusive means about -30% to -50%; inactive means above about -30%;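 note: stimulus is agonist 54-4 at its EC80 concentration; % is set by controls: 0 for no effect and ±100 for the full control effect; the text of the record puts the active cut at -80%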
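TRPML1-DL cells, Tet-induced overnight (~16 h, 37 °C) at 1,500 cells/well, were loaded with Ca8 no-wash dye plus quencher for 45-90 min at room temperature. Compounds were pinned during FDSS kinetic reading; agonist 54-4 at EC80 (4 uM final) then added.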
gsp agonist: activates gsp, the McCune-Albright syndrome mutation | gsp mutant cells, cAMP HTRF, 30 min; control for the full effect not named in the record | Potency, µM (highest dose often 76.9 µM), inactives show at the highest dose activation (cAMP increase), usual class: activators | hit rate 0.13% among 340,000; active = well fitted activation curve with a large enough effect; inconclusive = small, poorly fitted or top-dose-only effect, or another doubt; inactive = no such curve, though single readings can be large or run the other way; cell line not stated here;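 note: phosphodiesterase inhibitor Ro 20-1724 added with compounds to block cAMP breakdown; potency is the fitted concentration of half-maximal effect; nearly all actives have a fitted effect of over 60% in size; about a fifth of the inactives were tested at one dose only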
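Cells stably selected in G418 were plated at 2000/well, grown 16-24 hr, then given compounds in DMSO with the PDE inhibitor […] (300 uM solution added) for 30 min at 37C; cAMP was read by HTRF.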
TRPV1 potentiator: enhances activation of the human vanilloid receptor TRPV1; Q8NER1; TRPV1-expressing cells, Fluo-8 calcium influx, capsaicin EC20 potentiation; host cell line not named in the record; control for the full effect not named in the record; potentiation, % at 8.33 µM; hit rate 0.02% among 320,000; AID 540277; active means potentiation above 80%; inconclusive means 30% to 80%; inactive means below 30%; note: 0% is about no effect
Target sequence (Q8NER1 whole entry, looked up): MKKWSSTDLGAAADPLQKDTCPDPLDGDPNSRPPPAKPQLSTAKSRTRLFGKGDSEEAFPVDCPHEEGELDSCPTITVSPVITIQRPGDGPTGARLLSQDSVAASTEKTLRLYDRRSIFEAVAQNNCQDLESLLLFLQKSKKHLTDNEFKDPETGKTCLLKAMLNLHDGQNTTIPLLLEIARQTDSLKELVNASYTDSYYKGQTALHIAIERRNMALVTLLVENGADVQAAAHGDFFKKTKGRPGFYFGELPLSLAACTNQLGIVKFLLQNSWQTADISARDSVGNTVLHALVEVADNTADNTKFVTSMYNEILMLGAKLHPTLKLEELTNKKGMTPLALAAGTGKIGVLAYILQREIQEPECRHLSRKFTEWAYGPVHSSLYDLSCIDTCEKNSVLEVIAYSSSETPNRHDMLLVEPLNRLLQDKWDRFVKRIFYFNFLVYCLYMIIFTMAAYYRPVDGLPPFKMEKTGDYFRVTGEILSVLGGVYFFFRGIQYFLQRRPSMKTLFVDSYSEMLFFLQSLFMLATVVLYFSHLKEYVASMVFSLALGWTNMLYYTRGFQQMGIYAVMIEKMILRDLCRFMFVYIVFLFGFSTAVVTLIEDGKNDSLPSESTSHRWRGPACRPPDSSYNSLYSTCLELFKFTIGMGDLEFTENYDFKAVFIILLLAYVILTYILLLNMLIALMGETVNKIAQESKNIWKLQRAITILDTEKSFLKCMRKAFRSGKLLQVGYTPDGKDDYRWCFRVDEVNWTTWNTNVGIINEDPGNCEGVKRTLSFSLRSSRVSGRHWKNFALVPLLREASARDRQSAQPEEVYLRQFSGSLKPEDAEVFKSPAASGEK
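Fluo-8 calcium influx in TRPV1-expressing cells, kinetic read (ex 480/em 520 nm). Compound added and read 3 min for agonist activity, followed by capsaicin at EC20 final and 2 min further read for enhancement.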
Sfp inh: Sfp phosphopantetheinyl transferase inhibition; Q9F4F7; Biochemical Sfp PPTase activity, qHTS; Potency, µM, inactives show max response, negative = inhibition, hits mostly inhibitors; hit rate 3.5% among 310,000; AID 1490; active = well fitted inhibition curve with a large enough effect; inconclusive = small, poorly fitted or top-dose-only effect, or another doubt; inactive = no such curve, though single readings can be large or run the other way;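 note: the enzyme is Sfp with the accession as filed and its product quenches rhodamine fluorescence; potency is the fitted concentration of half-maximal effect; 0% = enzyme reaction without inhibitor and -100% = no enzyme wells; top concentration of the series not given in the record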
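Reaction rates are the 30-min fluorescence difference (ex 525, em 598 nm) in wells containing 15 nM Sfp, 5 uM rhodamine-CoA and 12.5 uM BHQ-2-YbbR at pH 7.6 with 10 mM MgCl2.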
Starred values were filed as active, the others as inactive; u = inconclusive; x = not tested or not shown; [ ] = remark or other dose.

Molecule,Menin MLL FP FL,TRPV1 potentiator,gsp antagonist,Sfp inh,ClpP mod,gsp agonist,TRPML1 blocker
N#C/C(=C/c1ccc(Br)o1)C(N)=S,u,16,x,35µM*,x,x,x
Cc1onc(-c2ccccc2Cl)c1C(=O)NCc1nnnn1-c1ccc(F)c(F)c1,x,x,x,x,-1.3%,14%,-12
CNC(=O)CCN(Cc1ccco1)S(=O)(=O)c1ccc(OC)c(OC)c1,2.8,-14,2%,17%,-1.6%,-2%[15.4 µM],-1
Cc1ccc(CNC(=O)CCSCc2cccc(F)c2)cc1,7.4,-21,5%,-17%,-0.3%,u,x
COC(=O)c1ccccc1N1C(=O)[C@@H]2C(c3ccc(Br)cc3)=NO[C@@H]2C1=O,2.0,7,-10%,u,9.8%,-16%,1
Cc1ccc2oc(=O)n(CCOc3ccccc3C)c2c1,3.5,-2,-2%,-15%,-2.4%,0%,10
CCOc1ncccc1C(=O)OCC(=O)Nc1cc(S(=O)(=O)N(CC)CC)ccc1C,-3.3,11,-4%,-13%,x,u,-10
CCOC(=O)N1CCN(C(=O)C(NC(=O)c2ccco2)C(C)C)CC1 (stereo not given),3.9,-10,-3%,19%,-3.8%,30%[15.4 µM],1
O=C1NC(c2cccc([N+](=O)[O-])c2)Oc2ccccc21 (stereo not given),2.6,3,4%,6%,x,-14%[15.4 µM],-10
CCOC(=O)c1cc(C)[nH]c(=O)c1C#N,0.5,-9,-2%,-4%,4.3%,u,5
CCSc1nnc(NC(=O)C(C)C)s1,0.5,-9,-10%,0%,-2.6%,-3%,-5
CCOc1ccccc1C(=O)OCC(=O)Nc1cccc(S(=O)(=O)NC2=NCCCCC2)c1,x,x,-17%,x,-29%,u,-20
N#C/C(=C\c1ccc([N+](=O)[O-])cc1)c1nc(C2CC2)cs1,-13,-10,5%,-9%,-1.9%,-4%,48
C/C(=N\NC(=O)c1ccc(N2CCCC2=O)cc1)c1ccncc1,5.4,-4,10%,11%,x,43%,-14
Cn1ncc(Cl)c1C(=O)N1CCN(S(=O)(=O)c2cccs2)CC1,x,u,12%,8%,0.0%,4%,-12
CCOC(=O)c1ccc(NS(=O)(=O)c2c(C)n[nH]c2C)cc1,x,-11,-10%,x,-1.3%,-12%,-1
CCc1ccc2nc3c(c(C(=O)O)c2c1)CCC3,-0.7,-7,11%,-2%,-6.6%,-10%,-3
NC(=O)c1ncn([C@@H]2O[C@H](CNS(=O)(=O)c3cc(S(=O)(=O)c4ccccc4)cs3)[C@@H](O)[C@H]2O)n1,x,x,11%,x,0.7%,x,38
Cn1cc(SCC(=O)NCc2ccc(F)cc2)c2ccccc21,-0.7,4,-30%,7%,x,28%[15.4 µM],4
CC(=O)Cc1cc(=O)c2c(C)cc(O)c(C3OC(CO)C(O)C(O)C3O)c2o1 (stereo not given),-11,-19,9%,8%,-12%,-39%[inhibitor],-5
Cc1nc2ccccc2n1S(=O)(=O)c1ccc(S(=O)(=O)N2CCCCCC2)cc1,4.8,-6,9%,-9%,1.6%,u,-14
Cc1cccc(N=[N+]([O-])c2cccc(C)n2)n1,x,x,3%,x,-1.3%,x,5
CN/C(=C\[N+](=O)[O-])NCCSCc1csc(CN(C)C)n1,-4.3[24.8 µM],x,1%,13%,0.4%,x,14
CCSc1cc(N2CC(C)OC(C)C2)nc(-c2ccccc2Cl)n1 (stereo not given),4.8,10,1%,14%,-2.6%,0%,-2
CCOc1ccccc1N1CCN(CC(=O)Nc2ccnn2C2CCCC2)CC1,x,-14,-19%,x,0.7%,30%,-8

Looked up one by one from above, 2 records:
Molecule,Menin MLL FP FL,TRPV1 potentiator,gsp antagonist,Sfp inh,ClpP mod,gsp agonist,TRPML1 blocker
CCOc1ncccc1C(=O)OCC(=O)Nc1cc(S(=O)(=O)N(CC)CC)ccc1C,-3.3,11,-4%,-13%,x,u,-10
CCOc1ccccc1C(=O)OCC(=O)Nc1cccc(S(=O)(=O)NC2=NCCCCC2)c1,x,x,-17%,x,-29%,u,-20

Look-ups from the results shown.
`CCOc1ncccc1C(=O)OCC(=O)Nc1cc(S(=O)(=O)N(CC)CC)ccc1C` in TRPML1 blocker is listed with -10
`C/C(=N\NC(=O)c1ccc(N2CCCC2=O)cc1)c1ccncc1` in Sfp inh is listed with 11%
`O=C1NC(c2cccc([N+](=O)[O-])c2)Oc2ccccc21` (stereo not given) in TRPML1 blocker is listed with -10
`CN/C(=C\[N+](=O)[O-])NCCSCc1csc(CN(C)C)n1` in gsp antagonist is listed with 1%
`CCOC(=O)c1cc(C)[nH]c(=O)c1C#N` in Sfp inh is listed with -4%

Remaining list, next part
Molecule,Menin MLL FP FL,TRPV1 potentiator,gsp antagonist,Sfp inh,ClpP mod,gsp agonist,TRPML1 blocker
Cc1ccc(S(=O)(=O)N[C@H](C(=O)N2CCC3(O)CCCCC3C2)c2ccccc2)cc1 (stereo not given in full),-0.2,14,-3%,5%,-1.3%,-21%,18
Cc1cccc(-c2cc(C(=O)N/N=C/c3cccnc3)c3ccccc3n2)c1,x,x,-21%,x,x,19%,31
CCC(C)NC(=O)CSc1nc2ccsc2c(=O)n1NC(=O)c1ccccc1 (stereo not given),0.8,9,-1%,-6%,1.1%,-4%,7
CC(=O)n1c2ccccc2c2ccccc21,-0.3,8,0%,12%,0.9%,-14%,6
Cc1ccc(C(=O)CCC(=O)OCC(=O)N2c3ccccc3NC(=O)C2(C)C)cc1,x,-5,2%,x,0.9%,12%[15.4 µM],35
COc1ccc(C(=O)CSc2cc(C)nc3nc(C)nn23)cc1OC,3.2,6,-1%,7%,-2.1%,-30%[inhibitor],0
C[C@@H]1CN([C@H](C)CO)C(=O)CCCn2nncc2CO[C@H]1CN(C)C(=O)OCc1ccccc1,x,x,x,x,1.2%,-4%,-6
CC(Oc1cccc(Cl)c1)C(=O)Nc1ccc([N+](=O)[O-])cn1 (stereo not given),2.2,-17,0%,1%,-0.2%,3%,-2
COC(=O)c1ccc(CSc2ncnc3c2sc2nc(N4CCOCC4)c4c(c23)CCCC4)o1,x,x,14%,x,u,0%,-16
CCCCC[n+]1ccn(-c2nc3ccccc3nc2[N-]S(=O)(=O)c2ccc(C)cc2)c1,6.1,-1,1%,56µM*,-16%,-5%,1
CC1(C)CC(=O)C=C(c2cccc(Br)c2)C1,x,-8,-15%,x,-0.4%,u,21
CCOC(=O)N1CCN(C(=O)Nc2ccc3nc(C)c(C)nc3c2)CC1,3.6,23,4%,31%[activator],28µM*,u,-12
Cc1cccc(N2C(=O)c3ccc(C(=O)Nc4c[nH]c(=O)[nH]c4=O)cc3C2=O)c1,-0.8,8,-5%,12%,-0.2%,-4%,-24
Nc1cc(OCC(F)(F)F)cc(OCC(F)(F)F)c1,3.1,18,2%,17%,-0.3%,-5%[15.4 µM],-5
O=C(c1ccc([N+](=O)[O-])cc1)N1CCSC1c1ccccc1Cl (stereo not given),3.4,-13,-1%,9%,x,-2%[15.4 µM],7
O=C(CSc1nc2ccccc2[nH]1)Nc1ccc2c(c1)CCC2,5.2,-19,3%,-18%,u,20%,35
CC(=O)OC[C@H]1O[C@H](CCO/N=C(\C)CCN2CCCc3nc(C)c(C)cc32)C=C[C@@H]1OC(C)=O,u,-19,x,-4%,x,x,x
Cc1ccc(S(=O)(=O)/N=C(\c2ccc(F)cc2)n2c(C)nc3ccccc32)cc1,4.1,5,-5%,8%,-1.3%,u,51
CCC1=Nc2cc(C(=O)NCCN3CCOCC3)ccc2Sc2ccc(C)cc21,3.5,-2,u,5%,-1.0%,0%,-13
CC(C)N(C(=O)COC(=O)[C@@H]1CC(O)CN1S(=O)(=O)c1ccc(C(C)(C)C)cc1)C(C)C (stereo not given in full),2.8,-2,-2%,10%,x,2%,-21
CCC(C(=O)NC1CCCC1)N(Cc1cccs1)C(=O)Cn1nnc(-c2ccc(OC)c(OC)c2)n1 (stereo not given),-0.2,13,-4%,24%,-0.3%,-8%,1
COc1ccc(C(=O)NCCCN=C2NS(=O)(=O)c3ccccc32)cc1,-1.0,13,8%,16%,-2.1%,-5%[15.4 µM],-10
O=S(OCCN1CCCC1)C(c1ccccc1)c1ccccc1 (stereo not given),x,x,10%,x,-3.0%,3%,2
Cc1cccc(S(=O)(=O)Nc2nc3ccccc3nc2NCC2CCCO2)c1 (stereo not given),-6.0,0,6%,5%,4.0%,5%,x
COc1ccc(C(=O)Nc2ccc3nc(C)sc3c2)cc1S(=O)(=O)N1CCOCC1,x,x,x,x,-0.4%,27%,-13
COCCCN(C(=O)c1cccnc1SC)c1c(N)n(Cc2ccccc2)c(=O)[nH]c1=O,0.5,-27,7%,13%,1.8%,-41%[inhibitor],-3
Cc1cc(C)nc(SCc2cc(=O)c(OC(=O)c3ccc(Cl)c([N+](=O)[O-])c3)co2)n1,0.2,-2,35µM*,10%,2.1%,-38%[inhibitor],-1
CC(=O)N1c2ccc(S(=O)(=O)N3CCC(C(=O)NC4CCCCC4)CC3)cc2CC1C (stereo not given),x,10,3%,4%,-0.2%,34%,11
O=C(Cc1ccsc1)Nc1ccc2c(c1)OCO2,x,3,5%,x,-2.5%,u,46
Cc1cc(C)nc(SCC(=O)OC(C)C(=O)Nc2ccccc2)n1 (stereo not given),x,-5,6%,7%,-17%,0%,-9
